Assay outcomes as filed in PubChem BioAssay.
A1 inh – A1 inhibition; MEF A1-2A-BIM cells, caspase-Glo luminescence, 3 h; percent of clofoctol signal, DMSO as zero; AID 2241; 21,000 tested, 0.51% active; caspase activation, % (test concentration not listed);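 active means most replicate scores above 10, or exactly half above 10 with mean activity above 10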;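 further: effector caspase 3 and 7 activity cleaving a DEVD luciferin substrate; 50 nL library stock added to about 30 µL; numbers are from one replicate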
BJeLR viability – BJeLR cell viability reduction; BJeLR fibroblasts viability, CellTiterGlo ATP luminescence, 48 h; HRASV12, hTERT and SV40 LT/ST transformed; viability loss activity score, % (concentration not given with the values); 30,000 tested, 0.64% active; AID 2275; in the data active means viability loss activity score above about 50%; about a fifth of its hits are not listed in these tables;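 further: higher score means fewer live cells and less ATP luminescence; stock transfer was 50 or 100 nL into about 30 µL; 0% = vehicle wells and 100% = a reference killing control; one replicate is shown; the record names a cut of 85%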
Numbers without * were called inactive; . = no result given.

SMILES | A1 inh | BJeLR viability
C[C@@H]1CN([C@H](C)CO)C(=O)c2cccc(NC(=O)Nc3ccc(F)cc3)c2O[C@H]1CN(C)S(=O)(=O)c1ccc(F)cc1 | . | -3.9
Cc1noc(C)c1NC(=O)N(C)C[C@@H]1Oc2ccc(NS(=O)(=O)c3ccccc3)cc2C(=O)N([C@@H](C)CO)C[C@@H]1C | 1.1 | 0.6
Cc1oc2c(c1C(=O)N1CCC(C)CC1)C(=O)c1ccccc1C2=O | -0.8 | 31
Cn1c(=O)c2c(-c3ccc(C(C)(C)C)cc3)n(-c3cc(N)c(Cl)cc3Cl)cc2n(C)c1=O | -1.2 | -1.5
COc1ccc(C(=O)CSc2nc(-c3cccc(C)c3)ns2)cc1 | 0.1 | -2.7
C[C@@H]1CN([C@H](C)CO)C(=O)c2cc(NC(=O)CCC(F)(F)F)ccc2O[C@@H]1CN(C)CC1CC1 | 1.7 | 1.9
C[C@@H]1CN([C@H](C)CO)C(=O)c2cc(NS(=O)(=O)c3cccs3)ccc2O[C@@H]1CN(C)S(C)(=O)=O | 0.3 | 1.1
CC(C)(C)c1ccc(C(=O)Nc2c3c(nn2-c2ccc(Cl)cc2)CSC3)cc1 | -0.1 | 1.1
COc1ccc(S(=O)(=O)N(C)C[C@@H]2Oc3c(NS(=O)(=O)c4ccc(C)cc4)cccc3C(=O)N([C@@H](C)CO)C[C@H]2C)cc1 | . | -1.8
C=C(CO)C1Cc2cc(C(C)=O)ccc2O1 (stereo not given) | 0.8 | -6.2
O=C(N=S1CCN(c2ncc(C(F)(F)F)cc2Cl)CC1)c1ccccc1 | 0.0 | 8.7
C[C@H]1CN([C@@H](C)CO)C(=O)c2cccc(NS(=O)(=O)c3cccs3)c2O[C@H]1CN(C)Cc1ccc(-c2ccccc2)cc1 | . | -2.1
CCC1Oc2ccc(C)cc2N(CC(=O)NC(C)CCc2ccccc2)C1=O (stereo not given) | 0.6 | -1.5
O=C(COc1ccc(Br)cc1C(=O)Nc1ccc(Cl)cc1)NC1CC1 | 0.3 | 3.2
S=c1nc(-c2ccccc2)n(-c2ccccc2)[nH]1 | -0.4 | -0.9
CCOc1ccc(-n2c(O)c(C3=c4ccccc4=NC3=O)sc2=O)cc1 | -0.3 | -4.7
C[C@@H]1CN([C@@H](C)CO)C(=O)c2cccc(NC(=O)Nc3ccc4c(c3)OCO4)c2O[C@@H]1CN(C)Cc1ccc(Cl)c(Cl)c1 | . | -3.0
C[C@H](CO)N1C[C@H](C)[C@H](CN(C)Cc2ccccc2)Oc2ccc(NC(=O)CCCCCC(=O)Nc3ccccc3N)cc2C1=O | . | -2.4
CNC[C@@H]1Oc2c(NC(=O)c3ccc(-c4nccs4)cc3)cccc2C(=O)N([C@H](C)CO)C[C@H]1C | . | 2.3
Cc1ccc(S(=O)(=O)c2cn(Cc3cccc(Cl)c3)c3cc4c(cc3c2=O)OCO4)cc1 | -0.7 | -3.1
COc1ccccc1NC(=O)C(NC(=O)c1ccccc1NC(=O)c1ccccc1)C(C)C (stereo not given) | 0.1 | -3.4
O=S(=O)(/N=C(\Oc1ccccc1)c1ccccc1)c1ccc(Br)cc1 | -0.1 | -0.4
COc1ccc(OC)c(Nc2nc3nonc3nc2N2CCC(C)CC2)c1 | . | -2.4
C[C@@H]1CN([C@H](C)CO)C(=O)c2cc(NC(=O)Nc3ccccc3)ccc2O[C@H]1CN(C)Cc1ccc(C(F)(F)F)cc1 | -0.2 | -4.4
Cc1noc(C)c1S(=O)(=O)Nc1ccc2c(c1)C(=O)N([C@@H](C)CO)C[C@H](C)[C@H](CN(C)S(=O)(=O)c1ccc(F)cc1)O2 | 0.4 | 3.0
C[C@H](CO)N1C[C@H](C)[C@@H](CN(C)Cc2ccc(-c3ccccc3)cc2)Oc2ccc(NC(=O)Cc3ccccc3)cc2C1=O | 0.7 | 2.2
COc1ccc(CN(C)C[C@H]2Oc3c(NC(=O)Nc4ccc(F)cc4)cccc3C(=O)N([C@H](C)CO)C[C@@H]2C)cc1 | . | 0.7
C[C@H](CO)N1C[C@H](C)[C@H](CN(C)C(=O)Nc2ccc(F)cc2)Oc2c(NC(=O)NC3CCCCC3)cccc2C1=O | . | -0.5
COc1ccc(CCNC(=O)CSc2nc(C)cc(C)n2)cc1OC | -0.6 | 0.7
Cc1ccn2cc(CCNS(=O)(=O)c3ccc(Cl)s3)nc2c1 | 0.0 | 1.7
CCC(C(=O)OCn1nnc2ccccc2c1=O)c1ccccc1 (stereo not given) | . | 0.0
CC(C)(C)NC(=O)C[n+]1cccc(/C=N/O)c1 | -0.4 | 1.8
COc1cc2ncnc(Nc3ccc(Oc4ccccc4)cc3)c2cc1OC | 1.1 | -0.1
O=C(Nc1ccc(Cl)c(Cl)c1)N(CCCN1CCOCC1)Cc1cccnc1 | 0.2 | 1.8
O=C(NCc1ccccc1)NC1CCS(=O)(=O)C1 (stereo not given) | 0.6 | -1.4
COc1ccc(CNC(=S)Nc2ccccc2)cc1 | -0.6 | 6.5
C[C@@H]1CN([C@H](C)CO)C(=O)c2cc(NS(C)(=O)=O)ccc2O[C@H]1CN(C)S(=O)(=O)c1ccc(F)cc1 | 0.3 | -1.0
O=C(OCC1OC(Oc2ccc(O)cc2COC(=O)C2(O)C(O)CCC2(O)C(=O)O)C(O)C(O)C1O)c1ccccc1 (stereo not given) | -0.6 | -0.4
Cc1noc(C)c1NC(=O)N(C)C[C@H]1Oc2ccc(NC(=O)NC3CCCCC3)cc2C(=O)N([C@H](C)CO)C[C@H]1C | -0.1 | 2.9
C[C@@H]1CN([C@H](C)CO)C(=O)c2cccc(NC(=O)c3cnccn3)c2O[C@H]1CN(C)C(=O)Nc1ccc2c(c1)OCO2 | . | 2.6
O=C(CSc1ccccn1)Nc1ccccn1 | -1.7 | 0.2
C[C@@H]1CN([C@H](C)CO)C(=O)c2cccc(NC(=O)c3cnccn3)c2O[C@H]1CN(C)S(C)(=O)=O | . | 4.4
COc1ccc(CC(=O)N2c3ccccc3CCc3ccccc32)cc1 | -0.1 | -6.0
CC(C)NC(=O)N(C)C[C@H]1Oc2c(NS(=O)(=O)c3cccs3)cccc2C(=O)N([C@@H](C)CO)C[C@@H]1C | . | 1.1
C[C@H]1CN([C@@H](C)CO)C(=O)c2cc(NS(=O)(=O)c3cccs3)ccc2O[C@@H]1CN(C)S(C)(=O)=O | 1.0 | 1.0
CC(C)c1ccc(NC(=O)NN2CCOCC2)cc1 | 1.2 | 2.9
C[C@@H]1CN([C@@H](C)CO)C(=O)c2cccc(NC(=O)Nc3ccc(C(F)(F)F)cc3)c2O[C@H]1CN(C)S(=O)(=O)c1ccccc1 | . | -7.3
COc1ccc(S(=O)(=O)N(C)C[C@H]2Oc3c(NS(=O)(=O)c4ccccc4)cccc3C(=O)N([C@H](C)CO)C[C@H]2C)cc1 | . | 0.8
C[C@H](CO)N1C[C@H](C)[C@H](CN(C)Cc2ccc(Cl)c(Cl)c2)Oc2c(NC(=O)Nc3cccc4ccccc34)cccc2C1=O | . | 1.3
Cc1ccc(C(=O)N2CC(C)CC(C)C2)cc1 (stereo not given) | 2.0 | 5.1
O=C(O)CCN1C(=O)C2C3c4ccccc4C(c4ccccc43)C2C1=O (stereo not given) | -0.5 | 1.6
C[C@@H]1CN([C@H](C)CO)C(=O)c2cc(NC(=O)CCC(F)(F)F)ccc2O[C@H]1CN(C)C | -0.6 | 2.9
COc1cc(NC(=O)c2ccc3c(SCC(=O)O)c4c(nc3c2)CCC4)cc(OC)c1OC | -0.6 | -3.2
CCC(C)c1ccc(OCC(=O)Nc2cccc(-c3nc4ncccc4o3)c2C)cc1 (stereo not given) | . | -0.3
C[C@H](CO)N1C[C@H](C)[C@H](CN(C)CC2CC2)Oc2ccc(NS(=O)(=O)c3cn(C)cn3)cc2C1=O | 0.8 | -5.0
C[C@@H]1CN([C@@H](C)CO)C(=O)c2cc(NC(=O)NC3CCCCC3)ccc2O[C@H]1CN(C)Cc1ccc(C(F)(F)F)cc1 | 1.1 | -0.7
O=C(COc1ccccc1Br)Nc1ccc(C(=O)OC2CCCCC2)cc1 | 0.0 | -0.5
CCN(CC)C(=O)Cn1cc(SCC(=O)N(C(C)C)C(C)C)c2ccccc21 | 2.1 | 2.1
COc1ccc(S(=O)(=O)N(C)C[C@H]2Oc3ccc(NC(=O)Nc4ccc(C(F)(F)F)cc4)cc3C(=O)N([C@@H](C)CO)C[C@@H]2C)cc1 | 0.8 | 0.0
C[C@H]1CN([C@@H](C)CO)C(=O)c2cc(NC(=O)NC3CCCCC3)ccc2O[C@@H]1CN(C)C(=O)NC1CCCCC1 | 0.1 | -7.1

Following part
SMILES | A1 inh | BJeLR viability
C[C@@H]1CN([C@@H](C)CO)C(=O)c2cc(NC(=O)C3CCCCC3)ccc2O[C@@H]1CN(C)S(=O)(=O)c1ccc(Cl)cc1 | 0.5 | 0.2
Cc1nc2sccn2c(=O)c1CCN1CCC(=C(c2ccc(F)cc2)c2ccc(F)cc2)CC1 | -0.4 | -1.5
O=C(NC1CCCC1)c1ccc2c(c1)sc1nc(-c3ccccc3)cn12 | 0.8 | 0.9
C[C@@H]1CN([C@@H](C)CO)C(=O)c2cccc(NC(=O)c3cnccn3)c2O[C@@H]1CN(C)C(=O)Nc1ccc(F)cc1 | . | 1.5
CCN(CC)S(=O)(=O)c1ccc(NC(=O)COc2ccc(Cl)cc2Cl)cc1 | 0.2 | 1.8
COc1ccc(NC(=O)Nc2ccc3c(c2)C(=O)N([C@H](C)CO)C[C@@H](C)[C@@H](CN(C)C(=O)Nc2ccc(C(F)(F)F)cc2)O3)cc1 | 0.1 | -4.8
C=CCn1c(=O)[nH]c2nc3cc(N=CN(C)C)c(C)cc3nc2c1=O | . | 0.6
Cc1nc(CS(=O)(=O)c2ccccn2)sc1C(=O)NN | -0.5 | -1.1
C[C@@H]1CN([C@@H](C)CO)C(=O)c2cc(NS(=O)(=O)c3ccc(F)cc3)ccc2O[C@@H]1CN(C)S(=O)(=O)c1ccccc1 | 0.7 | 2.3
C=CCN1C(=O)NC(C)(C)C1=O | . | -8.7
C[C@H]1CN([C@@H](C)CO)C(=O)c2cc(NS(=O)(=O)c3ccc(Cl)cc3)ccc2O[C@H]1CN(C)Cc1ccncc1 | 0.2 | -6.4
COc1cc(O)cc(C2=C(C)CC(O)C2=O)c1 (stereo not given) | 0.6 | -3.4
COC(=O)C1Sc2[nH]c(=O)sc2C(c2ccc(OC)cc2)C1C(=O)OC (stereo not given) | 0.6 | 2.8
O=C(O)CC1(CC(=O)Nc2cc3ccccc3cn2)CCCCC1 | 1.1 | 2.8
CC1=C(C(=O)NC(C)C)C2(CCCCC2)OC1=O | . | 1.3

Exported as a markdown table: part of the list above
| Compound | A1 inh | BJeLR viability |
| --- | --- | --- |
| Cc1nc(CS(=O)(=O)c2ccccn2)sc1C(=O)NN | -0.5 | -1.1 |
| C[C@@H]1CN([C@@H](C)CO)C(=O)c2cc(NS(=O)(=O)c3ccc(F)cc3)ccc2O[C@@H]1CN(C)S(=O)(=O)c1ccccc1 | 0.7 | 2.3 |
| C=CCN1C(=O)NC(C)(C)C1=O | . | -8.7 |
| C[C@H]1CN([C@@H](C)CO)C(=O)c2cc(NS(=O)(=O)c3ccc(Cl)cc3)ccc2O[C@H]1CN(C)Cc1ccncc1 | 0.2 | -6.4 |
| COc1cc(O)cc(C2=C(C)CC(O)C2=O)c1 (stereo not given) | 0.6 | -3.4 |
| COC(=O)C1Sc2[nH]c(=O)sc2C(c2ccc(OC)cc2)C1C(=O)OC (stereo not given) | 0.6 | 2.8 |
| O=C(O)CC1(CC(=O)Nc2cc3ccccc3cn2)CCCCC1 | 1.1 | 2.8 |

Other entries:
SMILES | A1 inh | BJeLR viability
COc1ccc2c(=O)c(-c3ccccc3C)c(C(F)(F)F)oc2c1 | 0.6 | 5.0
C[C@@H]1CN([C@H](C)CO)C(=O)c2cc(NS(=O)(=O)c3cn(C)cn3)ccc2O[C@@H]1CN(C)S(=O)(=O)c1ccc(F)cc1 | -0.4 | -4.4
N/C(CCCN1CCCCC1)=N\O | . | -5.0
C[C@H]1CN([C@@H](C)CO)C(=O)c2cc(NC(=O)Nc3ccc(F)cc3)ccc2O[C@@H]1CN(C)C(=O)Nc1ccccc1 | -0.3 | 2.9
CCc1nnc(NC(=O)CSc2nc(-c3ccccc3)cc(C(F)(F)F)c2C#N)s1 | -0.1 | 1.5
CNC(=S)N1CCc2cc(OC)c(OC)cc2C1COc1ccc(OC)cc1 (stereo not given) | . | -0.6
CCc1c(C(=O)OC)nnc2cc(C)nn12 | -0.7 | -1.9
CNC(=S)Nc1cc(Cl)cc(Cl)c1 | -0.2 | 2.1
Cc1ccc(C(=O)Oc2ccc(C3SCCS3)cc2)cc1 | -0.9 | -1.2
CCCCC(=O)N1c2ccccc2NC2=C(C(=O)CCC2)C1c1ccccc1 (stereo not given) | 0.1 | -11
COC(=O)CN1C(=S)N(Cc2ccccc2)C(=O)C1CC(=O)Nc1ccc(OC)cc1 (stereo not given) | 0.0 | -1.5
OCCNC(=S)NC1CCCC1 | 2.0 | -2.9
C[C@@H]1CN([C@H](C)CO)C(=O)c2cccc(NS(=O)(=O)c3cccs3)c2O[C@@H]1CN(C)S(=O)(=O)c1ccccc1 | . | -1.3
COc1ccc(CN=Cc2ccc(C(F)(F)F)cc2)cc1 | . | 2.9

An excerpt; the hit share may differ from the screen's.
